KAT2A inh: qHTS Assay for Inhibitors of GCN5L2. Potency, µM (highest dose often 58.9 µM), without a hit: at the top dose activity change, negative = inhibition, usual class: inhibitors. AID 504327, 2011. GCN5L2 HAT assay, ThioGlo1 CoA-SH fluorescence. 390,000 tested, 0.21% active; active means well fitted inhibition curve with a large enough effect; inconclusive means small, poorly fitted or top-dose-only effect, or another doubt; inactive means no such curve, though single readings can be large or run the other way
Target sequence (Q92830 whole entry, looked up): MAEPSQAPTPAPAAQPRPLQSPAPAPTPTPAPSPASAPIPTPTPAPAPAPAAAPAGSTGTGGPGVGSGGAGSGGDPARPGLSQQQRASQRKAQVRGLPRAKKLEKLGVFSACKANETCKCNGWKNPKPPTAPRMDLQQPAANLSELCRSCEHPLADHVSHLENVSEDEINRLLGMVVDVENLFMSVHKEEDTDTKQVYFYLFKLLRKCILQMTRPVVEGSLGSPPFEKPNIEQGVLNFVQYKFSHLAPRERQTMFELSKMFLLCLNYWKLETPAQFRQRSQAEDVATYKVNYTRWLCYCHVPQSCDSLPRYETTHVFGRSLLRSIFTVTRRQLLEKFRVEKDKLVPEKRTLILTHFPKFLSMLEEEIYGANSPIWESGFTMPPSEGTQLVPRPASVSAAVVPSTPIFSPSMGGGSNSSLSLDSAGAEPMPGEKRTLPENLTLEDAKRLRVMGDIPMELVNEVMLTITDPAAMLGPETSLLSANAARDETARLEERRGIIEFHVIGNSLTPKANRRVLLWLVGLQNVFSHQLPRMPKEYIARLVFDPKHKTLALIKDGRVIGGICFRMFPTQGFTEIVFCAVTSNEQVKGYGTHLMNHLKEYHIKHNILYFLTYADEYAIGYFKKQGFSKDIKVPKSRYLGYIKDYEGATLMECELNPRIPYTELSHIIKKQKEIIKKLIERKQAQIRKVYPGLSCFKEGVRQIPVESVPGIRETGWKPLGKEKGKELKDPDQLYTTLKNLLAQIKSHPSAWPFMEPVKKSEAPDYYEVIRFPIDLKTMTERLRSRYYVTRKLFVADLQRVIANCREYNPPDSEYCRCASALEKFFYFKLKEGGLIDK
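Preincubate 20nM GCN5L2 with compound 15 min, RT → add 50uM ThioGlo1 + 75uM H3(1-25) + 70uM acetyl-CoA → read fluorescence 0 and 20 min. Primary qHTS; fluorescent artifacts likely.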
* = called active by the depositor; ? = inconclusive; & = joins results of further samples. On the % scale 0 is the no-effect control and ±100 the full control effect; potency means the concentration at half of the fitted maximal effect.

SMILES	KAT2A inh
O=C(COC(=O)c1c(F)cccc1F)c1ccc[nH]1	1%
CC(C)(C)OC(=O)N[C@@H](Cc1ccccc1)C(=O)N[C@@H](CO)[C@H](O)[C@@H]1C[C@@H]1C(=O)N1CCCC1	0%
O=C(CCN1C(=O)C2C3CCC(C3)C2C1=O)Nc1ccccc1Cl (stereo not drawn)	?
O=C(Nc1ccc(Cl)c([N+](=O)[O-])c1)c1ccc(NCCCN2CCOCC2)c([N+](=O)[O-])c1	-3%
CC(=O)Nc1ccc(NC(=O)c2cc(=O)c3cc(C)cc(C)c3o2)cc1	-3%
COc1ccccc1N1CCN(C(=O)c2cc3c(=O)n(C)c4ccccc4c3n2C)CC1	-2%
COc1ccc(CN(C(=O)c2snc(C(N)=O)c2N)C(C(=O)NC(C)(C)C)c2ccco2)cc1 (stereo not drawn)	-7%
O=C(O)c1ccc(/C=N/NC(=O)c2ccc(Br)cc2)cc1	-6%
CCOC(=O)CSc1ncnc2c1cnn2-c1ccc(C)cc1	0%
COCCCNc1nc2nonc2nc1N1CCN(Cc2cccc(C)c2)CC1	-6%

By substructure, the entries above containing nitrogen in an aromatic ring
SMILES	KAT2A inh
O=C(COC(=O)c1c(F)cccc1F)c1ccc[nH]1	1%
COc1ccccc1N1CCN(C(=O)c2cc3c(=O)n(C)c4ccccc4c3n2C)CC1	-2%
COc1ccc(CN(C(=O)c2snc(C(N)=O)c2N)C(C(=O)NC(C)(C)C)c2ccco2)cc1 (stereo not drawn)	-7%
CCOC(=O)CSc1ncnc2c1cnn2-c1ccc(C)cc1	0%
COCCCNc1nc2nonc2nc1N1CCN(Cc2cccc(C)c2)CC1	-6%

The listing continues.
SMILES	KAT2A inh
COc1ccccc1C(=O)COC(=O)c1cccc(S(=O)(=O)N2CCCC2)c1	-5%
CCCS(=O)(=O)N1CCN(S(=O)(=O)c2ccc(F)cc2)CC1	-5%
CCOc1ccc(/C=N/N(C)c2ccccc2)cc1OC	-10%
COc1cccc(C(=O)N2CCN(C3CCC(c4ccccc4)CC3)CC2)c1OC (stereo not drawn)	1%
Cn1c(=O)c2c(ncn2CCOc2ccc(F)cc2)n(C)c1=O	3%
CS(=O)(=O)c1ccc(-c2nnc(NC(=O)c3ccco3)o2)cc1	-5%
Cc1cc2oc(=O)cc(CN3CCCCC3)c2cc1O	2%
O=C(Nc1ccccc1N1CCCC1)c1ccco1	1%
O=C(OCc1cccc([N+](=O)[O-])c1)c1ccncc1	1%
CCNC(=O)NC(=O)C(C)OC(=O)[C@H](C)NS(=O)(=O)c1c(C)c(C)cc(C)c1C (stereo partly drawn)	-2%
Fc1ccc(Br)cc1C1C=C(c2cccnc2)Nc2ncnn21 (stereo not drawn)	-9%
COc1ccc(-c2c(NC(=O)c3ccco3)oc3ccc(Cl)cc3c2=O)cc1	0%
COc1ccc(S(=O)(=O)N2CCN(Cc3ccc4c(c3)OCO4)CC2)c2ccccc12	-15%
CC(C)(CNC(=O)C1c2ccccc2-c2ccccc21)N1CCOCC1	-8%
C/C(=N\NC(=O)Cc1c(C)[nH][nH]c1=O)c1ccc(Cl)c(Cl)c1	3%
CC1=NN(C(=O)c2ccc(Cn3nc(C)c([N+](=O)[O-])c3C)cc2)C(O)(C(F)(F)F)C1 (stereo not drawn)	0%
COc1ccc(NC(=O)c2ccc(=O)oc2)cc1	3%
CC(C)N1CCc2c(sc(NC(=O)c3ccc(S(=O)(=O)N4CCCCC4C)cc3)c2C(N)=O)C1 (stereo not drawn)	-3%
CNC(=O)c1ccsc1NC(=O)CCS(=O)(=O)c1ccc(Cl)cc1	0%
CCN1CCN(C(c2cc3cccc(C)c3[nH]c2=O)c2nnnn2Cc2ccccc2)CC1 (stereo not drawn)	-3%
Oc1ccc(Br)cc1/C=N/n1c(COc2ccccc2)n[nH]c1=S	-22%
O=C1c2ccccc2C(=O)N1CC(O)COc1ccccc1Cl (stereo not drawn)	-1%
O=Cc1cn(CCOc2ccccc2F)c2ccccc12	-14%
COc1ccc(C/C(C)=N/NC(=O)c2ccncc2)cc1	-4%
COc1ccc(C[C@H](C)NC[C@@H](O)c2ccc(O)c(NC=O)c2)cc1	-17%
CCN(CC)C(=O)c1sc(NC(=O)c2ccc3c(c2)OCO3)c(C(N)=O)c1C	-18%
CSc1ccc(C(=S)N2CCCC2)cc1	1%
Cc1cc(=O)oc2c(C)c(OC(C)C(=O)NC(Cc3c[nH]c4ccc(O)cc34)C(=O)O)ccc12 (stereo not drawn)	-13%
CC(C)n1cc(C(=O)c2cc(Br)ccc2O)cc(C#N)c1=O	-5%
O=C(CNc1ccccc1)Nc1ccc(F)cc1	-8%
O=C(COC(=O)c1ccccc1NC(=O)c1ccco1)Nc1ncc(Cl)cc1Cl	-9%
O=C(CC(Nc1ccccc1)c1ccc(F)cc1)c1ccccc1 (stereo not drawn)	-12%
CN(C)CCNC=C(C(=O)Nc1ccc(Cl)cc1Cl)C(=O)Nc1ccc(Cl)cc1Cl	-8%
COc1ccccc1-n1cnc2cc(C(=O)N3CCOCC3)ccc21	-1%
O=c1c2c3c(sc2nc2n1CCCC2)CCCC3	-6%
O=C(NNC(=S)Nc1ccccc1)c1cc(-c2cccnc2)nc2ccccc12	-5%
Fc1ccccc1Cc1noc(CN2CCN(Cc3ccc4c(c3)OCO4)CC2)n1	1%
Cc1ccc(OCCOC(=O)Cn2nc(C)c([N+](=O)[O-])c2C)cc1	1%
Cc1ccc(N(CC(=O)NC2CCCC2)C(=O)CCC(=O)Nc2nc(C)cs2)cc1	-3%
Cn1ccsc1=NC(=O)c1ccc(Cl)cc1	-2%
CCc1nc(Nc2ccc3nccnc3c2)c2oc3ccccc3c2n1	-14%
CC(C)CNC(=O)C1CCCN1S(=O)(=O)c1ccc(Cl)cc1 (stereo not drawn)	-5%
CCOC(=O)c1cccc(NC(=O)c2ccccc2C)c1	0%
O=C(O)C1CCN(S(=O)(=O)/C=C/c2ccccc2)CC1	2%
COc1ccc(-n2nc(C(=O)NCC3CCCO3)c3ccccc3c2=O)cc1 (stereo not drawn)	-3%
NC(=O)CSc1nnc(-c2cccs2)n1-c1ccccc1	-4%
CC(C)OC(=O)Cn1nnc2c(cnn2-c2ccccc2)c1=O	2%
CN1C(=O)C(CC(=O)NC2CCCCC2)N(C)C1=O (stereo not drawn)	-4%
CSc1nc(C)c2c(n1)N(c1ccc(C(C)C)cc1)CC2	24%
NC(=O)c1ccccc1NS(=O)(=O)c1ccc(F)cc1	5%

The listing continues:
SMILES	KAT2A inh
C=CCNC(=O)c1c(N)n(-c2ccc3c(c2)OCO3)c2nc3ccccc3nc12	-1%
O=S(=O)(c1cnc(Cl)c(Br)c1)N1CCN(c2ncccn2)CC1	0%
C[C@@H](C(=O)O)c1cccc(C(=O)c2ccccc2)c1	1%
O=C(c1cccs1)N1CCN(C(=O)C2CCCO2)CC1 (stereo not drawn)	0%
CS(=O)(=O)N(CC(=O)N1CCN(Cc2ccccc2)CC1)c1ccccc1Br	3%
CCOc1ncccc1C(=O)OCC(=O)N1CCN(S(=O)(=O)c2ccccc2)CC1	3%
Cc1ccccc1NC(=O)CCn1c(=O)oc2ccccc21	-4%
Cc1ccc(-c2noc(CCC(=O)Nc3cccc(C#N)c3)n2)cc1	-4%
CN(C)CCCN1c2ccccc2CCc2ccccc21	-3%
CCCCCCCc1nc2sc3c(c2c(=O)n1N)CC(C)(C)OC3	-1%
NS(=O)(=O)c1ccc(CCNC(=O)CSc2nnc3ccccn23)cc1	-7%
Cc1cc(NC(=O)CSC2=NS(=O)(=O)c3cc(Cl)ccc3N2)no1	-5%
Cc1ccc(/C=N/NC(=O)CCSc2ccccc2)cc1	-3%
CCCCc1ccc(NC(=O)COCC)cc1	-1%
COCCOC(=O)C1=C(C)NC(=O)CC1c1cc2c(cc1Br)OCO2 (stereo not drawn)	-1%
COc1ccc(CCNC(=O)CCCc2ccccc2)cc1	-3%
Cc1nc2ccccn2c1C(=O)N/N=C/c1ccccc1Cl	?
O=C(c1ccc(Cl)c([N+](=O)[O-])c1)N1CCN(Cc2ccc3c(c2)OCO3)CC1	-3%
O=C(CSc1nnnn1-c1cccc(O)c1)NC1CC1	1%
COC(=O)CSc1nnc(-c2ccccc2OC)o1	-7%
Cc1oc2nc(SCC(=O)NCCCO)nc(N)c2c1C	-2%
CC1CCN(c2ccc(C(F)(F)F)cc2N)CC1	-1%
COc1ccc(Cl)cc1NC(=O)C1Cc2cc(S(=O)(=O)N3CCCC3)ccc2N1C(C)=O (stereo not drawn)	?
CCN(CC(=O)N1CCN(Cc2ccccc2)CC1)S(=O)(=O)c1ccc(F)cc1	-6%
O=C(Cn1c(=O)c2cccn2c2ccccc21)NCCc1ccccc1	0%&-20%
CCN(C(=O)Cn1cnc2c(nc3n2CCCCC3)c1=O)c1cccc(Cl)c1	-4%
Cc1noc(NS(=O)(=O)c2ccc(NC(=O)/C=C/c3ccc(Br)cc3)cc2)c1C	?
COC(=O)Cc1c[nH]c2ccc(OCC(O)CNC(C)C)cc12 (stereo not drawn)	-7%
Cc1cc(OCC(=O)Nc2ccncc2)c(C)cc1Br	-5%
CCN(CC)CCn1c2c(c(SCC(=O)Nc3ccc(F)c(F)c3)nc1=O)CCC2	-5%
COc1ccc(Nc2n[nH]c(C)c2[N+](=O)[O-])cc1	1%
CCCCNc1ccc(C(=O)O)cc1	-1%
CCN(CC)S(=O)(=O)c1ccc(C)c(NC(=O)COc2ccc3c(C)cc(=O)oc3c2)c1	2%
CCOc1ccc(C(C)NC(=O)c2cccc(F)c2)cc1 (stereo not drawn)	0%
CCn1c(C)nc2cc(C(=O)NNC(=S)NC(=O)c3ccccc3)ccc21	-7%
Cc1nn(C)c(C(=O)Nc2c(C)nn(Cc3c(F)c(F)c(F)c(F)c3F)c2C)c1Br	-2%
CCCCS(=O)(=O)N1CCN(S(=O)(=O)c2cccs2)CC1	-7%
COc1ccc(Cn2c(C)c(C)c(C#N)c2NC(=O)Nc2ccccc2)cc1	-1%
CC1CCCC(C)N1C(=O)Cn1cc(/C=C2/C(=O)Nc3ccccc32)c2ccccc21 (stereo not drawn)	-7%
COc1ccc(NC(=O)CN(C)C(=O)/C=C/c2cn(Cc3ccccc3)nc2-c2cccnc2)cc1	-29%
COc1ccc2c(CC(=O)O)cc(=O)oc2c1	-4%
CN(CC(=O)Nc1cccnc1)S(=O)(=O)c1ccc(Br)cc1	-7%
CC(C)NC(=O)Cn1c(SCC(=O)N2CCc3ccccc3C2)nc2ccccc21	-15%
CSc1ccc(S(=O)(=O)Nc2ccc(F)cc2)cc1	-4%
COCCNC(=O)C1(C)Oc2ccccc2NC1=O (stereo not drawn)	0%
COC(=O)Nc1ccc(S(=O)(=O)NCCCCCC(=O)O)cc1	-6%
CCCS(=O)c1nc(C)cc(C)c1S(C)(=O)=O (stereo not drawn)	-5%
O=C(N/C(=C/c1ccc(Br)cc1)C(=O)N1CCCC1)c1cccs1	0%
O=C(CN1CCC(Cc2ccccc2)CC1)NC(=O)NCc1ccccc1	14%
COc1ccccc1-c1ccc(SCc2ccccc2)nn1	-15%

The list goes on:
SMILES	KAT2A inh
CN(C)S(=O)(=O)c1ccc(NC(=S)NC(=O)C2CCC2)cc1	-2%
CCCOc1ccc(Cc2c(COCC)[nH]c(=S)[nH]c2=O)cc1	-1%
COc1ccc(NC(=O)c2ccccc2CC[N+](=O)[O-])cc1	-4%
COc1cccc(NC(=O)CSc2c3c(nc4ccccc24)CCCC3)c1	-9%&-6%
Cc1cccc(NC(=O)C2CCCN(S(=O)(=O)c3c(C)nn(C)c3C)C2)n1 (stereo not drawn)	0%
CCCCCCC(=O)NNC(=O)c1c(O)c2ccccc2n(CCC)c1=O	-6%
COc1ccc(C(=O)CSc2nnc(CNc3ccc(C)cc3C)o2)cc1	-4%
CC(=O)c1cc(F)c(N2CCN(CCC#N)CC2)cc1C	-2%
Cc1ccccc1OCC(=O)NCC1CCCO1 (stereo not drawn)	-1%
COc1ccccc1N1CCN(C(=O)c2cc(C)oc2C)CC1	-10%
CCOC(=O)c1ccc(NC(=O)CCS(=O)(=O)c2ccc(Br)s2)cc1	0%
COC(=O)c1ccc(NC(=S)N2CCN(Cc3ccccc3)CC2)cc1	-5%
Cc1ccccc1-n1c(SCC(=O)NCc2cccs2)nnc1-c1ccncc1	1%
O=C(C1CCCCC1)N(Cc1ccccc1)c1ccccn1	-1%
Cc1cc(C)c(NC(=O)C2CCCN2CCOC(=O)c2cccc([N+](=O)[O-])c2)c(C)c1 (stereo not drawn)	-2%
O=C(CN1CCN(C(=O)C2CCCO2)CC1)Nc1ccc(Br)cc1 (stereo not drawn)	-7%
C=C(C)COc1ccc2c(C)c(CC(=O)N3C[C@H]4C[C@@H](C3)c3cccc(=O)n3C4)c(=O)oc2c1	-1%
Cc1ccsc1/C=N/NC(=O)CNC(=O)c1ccccc1	-8%
Cc1ccc(S(=O)(=O)N2CCN(C(=O)c3ccccn3)CC2)cc1	0%
O=C(NCc1cccnc1)c1cnn2ccccc12	-5%

Molecules from the list above that have a cyano group, in the order listed:
SMILES	KAT2A inh
CC(C)n1cc(C(=O)c2cc(Br)ccc2O)cc(C#N)c1=O	-5%
Cc1ccc(-c2noc(CCC(=O)Nc3cccc(C#N)c3)n2)cc1	-4%
COc1ccc(Cn2c(C)c(C)c(C#N)c2NC(=O)Nc2ccccc2)cc1	-1%
CC(=O)c1cc(F)c(N2CCN(CCC#N)CC2)cc1C	-2%

Further entries.
SMILES	KAT2A inh
CC(C)Oc1cc(O)c2c(=O)c(-c3ccc(O)cc3)coc2c1	-5%
COc1ccc(Cn2cc(C(=O)O)c(=O)c3ccccc32)cc1	-4%
N/C(=N\OC(=O)Cc1cccs1)c1ccc(Cl)cc1	-4%
Cc1ccc(/C=C/C(=O)c2ccccc2)cc1	1%
CN(C)C(CNC(=O)c1cc2ccccc2oc1=O)c1ccccc1 (stereo not drawn)	-6%
Fc1c(F)c(F)c(NC2=NCCCCC2)c(F)c1F	-1%
COc1ccc(S(=O)(=O)N2CCOCC2)cc1NC(=O)c1ccc(-n2nc(C)cc2C)cc1	17%

Compound activity: PubChem, National Center for Advancing Translational Sciences (NCATS)

A portion of the library; most or all hits stand in other tables.
